Calb biofilm kill: clotrimazole potentiators killing C. albicans biofilm, primary screen, 4-compound mixtures; C. albicans biofilm persisters + clotrimazole, fluorescence viability; primary screen in compound mixtures of four per well; inhibition, % at 7.6 µM; 0.02% of 120,000 active;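 active means inhibition above 30.3% in the primary screen of four-compound pools, then above 30% when the compound was retested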;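 further: compounds exposed to preformed 24 h biofilms for 48 h; the number belongs to the whole pool; some results filed as inactive read as strong as hits; inactives centre near 12; 0% = biofilm with clotrimazole alone and 100% = kill control; retested singly at about 60 µM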
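System: C. albicans CAF4-2 wild-type biofilms; Medium: RPMI/MOPS medium, pH 7.0; Reagent: Clotrimazole, 50 µg/mL; Times: biofilm formation 24 h, compound exposure 48 h, 37 °C; Detection: 2-h Alamar Blue fluorescence, 535/590 nm excitation/emission; Evaluation: percent inhibition of biofilm viability.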
Starred values were filed as active, the others as inactive. Not all compounds are listed; rates above refer to the full screens.

SMILES | Calb biofilm kill
CC(=O)Nc1ccc([C@H]2[C@H](C)CC[C@H]3C(=O)N4[C@@H](CC[C@@H](C)[C@@H]4c4ccc(NC(C)=O)cc4)C(=O)N32)cc1 | 6
Cc1cc(C)nc(Nc2n[nH]c(-c3ccc(C(C)(C)C)cc3)n2)n1 | 8
CCC(C)NC(=O)C1=CCN(S(=O)(=O)c2ccc(C)cc2)CC1 (stereo not given) | 29
Cc1ccccc1NC(=S)NNC(=O)c1cccnc1 | 9
CC(=O)C(Sc1ncnc2sc3c(c12)CCCC3)C(C)=O | 5
Brc1cccc2sc(N3CCCC3)nc12 | 10
CCOP(=O)(c1ccccc1)C(O)c1ccccc1 (stereo not given) | 6
CC(C)c1ccc(-c2csc(NC(=O)c3cccs3)c2C(=O)O)cc1 | 14
O=C(Nc1c2c(nc3ccccc13)CCCC2)c1cccc([N+](=O)[O-])c1 | 14
CC(NC(=O)COC(=O)/C=C/c1ccc(Cl)cc1)c1ccccc1 (stereo not given) | 16
O=C(CSc1n[nH]c(-c2cc(Cl)ccc2Cl)n1)NCCN1C(=O)CSC1=O | 8
COc1ccc(Nc2nc(N)nc(CSC(=S)N3CCCCC3C)n2)cc1 (stereo not given) | 32
O=C(c1[nH]ncc1-c1ccccc1)C1CO1 (stereo not given) | 5
CC(C)(C)C(=O)N1CCN(c2ccc([N+](=O)[O-])c(-n3nc(-c4ccccc4)c4ccccc4c3=O)c2)CC1 | 13
S=c1[nH]nc(-c2cccnc2)n1-c1ccccc1 | 14
Cc1cc(C)nc(NS(=O)(=O)c2ccc(NC(=S)NC(=O)c3cccnc3)cc2)n1 | 8
Cc1ccc(-c2cc(C(=O)N/N=C/c3ccco3)n[nH]2)s1 | 23
COc1cc(C(=O)N/N=C2\CCS(=O)(=O)c3ccc(F)cc32)cc(OC)c1OC | 9
CC(=O)OCC(=O)Nc1ccc(Br)c(C)c1 | 12
O=C(O)CC1(CC(=O)Nc2ccc3c(c2)OCCCO3)CCCCC1 | 21
O=S(=O)(NCc1ccccc1)c1ccc(S(=O)(=O)NCC2CCCO2)cc1 (stereo not given) | 16
Cc1ccc2c(C)c(C(=O)N3CCC(N4CCC(C(=O)NC5CC5)CC4)CC3)oc2c1 | 7
CCOC(=O)c1c(C)c(C(=O)N2CCN(c3ccccc3)CC2)c(C)n1C | 7
COc1ccc(OC)c2sc(N3CCc4ccccc4C3)nc12 | 15
c1ccc(-c2csc3nnc(SCc4ccc5c(c4)OCCO5)n23)cc1 | 15
SMILES | Calb biofilm kill
COc1ccc(S(=O)(=O)N2CCCCC2)cc1NC(=O)CSc1nccn1C | 2
Cc1ccccc1Nc1ncnc(N)n1 | 0
COc1cc(S(=O)(=O)Nc2ccncc2)ccc1F | 5
Nc1cc(Cl)ccc1N1CCCCCC1 | 3
COc1ccccc1NC(=O)c1ccc(NC(=O)COC(=O)C2CC2C)cc1 (stereo not given) | 17
Cc1cccc(NC(=S)N/N=C/c2cccn2Cc2ccc(F)cc2)c1 | 15
Cc1ccc(S(=O)(=O)Nc2ccc(-c3nc4ccc(C)cc4s3)cc2)cc1 | 13
O=C1NC(=O)C2(COC(c3cccc([N+](=O)[O-])c3)OC2)S1 (stereo not given) | 11
Cc1cccc(N2CCN(c3ccc(N4C(=O)CCCC4=O)cc3[N+](=O)[O-])CC2)c1C | 6
O=C(NCCCN1CCOCC1)c1ccc(CNS(=O)(=O)c2ccc(Br)cc2)cc1 | -3
C(#Cc1ccccc1)C[N+]1(CC#Cc2ccccc2)CCCC1 | 12
COc1ccc(N=C(N)N=C(N)N)c(OC)c1 | 5
CNC(=S)N1CCC(NC(=O)C(Cc2ccc(F)cc2)NC(C)=O)CC1 (stereo not given) | 6
COc1ccc(N2CCN(C(C)C(=O)N3CCCC3)CC2)cc1 (stereo not given) | 10
CC1(C)c2cc(Cl)ccc2-n2c1cc(O)c(-c1ccccc1)c2=O | 22
Cc1nc2ccccc2n(CC(=O)Nc2cc(Cl)cc(Cl)c2)c1=O | 10
CC(=O)/C(N=Nc1c(C)n(C)n(-c2ccccc2)c1=O)=C(\C)O | -10
CNC(=O)c1[nH]cnc1C(=O)Nc1ccccc1OC | 10
COC(=O)C1CCN(CC(=O)Nc2ccc(OC)c(Cl)c2)CC1 | -11
Cc1ccnc(NC2(C(F)(F)F)N=C3SCCN3C2=O)c1 (stereo not given) | 13
Nc1ccccc1C(=O)N/N=C1/C2CN3CCN(C2)CC1(Cc1ccccc1)C3 | 15
COc1ccc(C(=O)N2CC(c3ccccc3)CC2=O)cc1 (stereo not given) | 2
CC(=O)C1=C(C)OC(N)=C(C#N)C1c1cccc([N+](=O)[O-])c1 (stereo not given) | -9
O=C(O)C1Cn2c(nc3c(c2=O)C2(CCCC2)Cc2ccccc2-3)S1 (stereo not given) | 9
C[C@H](NS(=O)(=O)c1ccc(Cl)cc1)C(=O)OCC(=O)c1ccc[nH]1 | 18

As a working copy, 15 of the compounds above:
SMILES | Calb biofilm kill
COc1ccc(S(=O)(=O)N2CCCCC2)cc1NC(=O)CSc1nccn1C | 2
Cc1ccccc1Nc1ncnc(N)n1 | 0
COc1cc(S(=O)(=O)Nc2ccncc2)ccc1F | 5
Nc1cc(Cl)ccc1N1CCCCCC1 | 3
COc1ccccc1NC(=O)c1ccc(NC(=O)COC(=O)C2CC2C)cc1 (stereo not given) | 17
Cc1cccc(NC(=S)N/N=C/c2cccn2Cc2ccc(F)cc2)c1 | 15
Cc1ccc(S(=O)(=O)Nc2ccc(-c3nc4ccc(C)cc4s3)cc2)cc1 | 13
O=C1NC(=O)C2(COC(c3cccc([N+](=O)[O-])c3)OC2)S1 (stereo not given) | 11
Cc1cccc(N2CCN(c3ccc(N4C(=O)CCCC4=O)cc3[N+](=O)[O-])CC2)c1C | 6
O=C(NCCCN1CCOCC1)c1ccc(CNS(=O)(=O)c2ccc(Br)cc2)cc1 | -3
C(#Cc1ccccc1)C[N+]1(CC#Cc2ccccc2)CCCC1 | 12
COc1ccc(N=C(N)N=C(N)N)c(OC)c1 | 5
CNC(=S)N1CCC(NC(=O)C(Cc2ccc(F)cc2)NC(C)=O)CC1 (stereo not given) | 6
COc1ccc(N2CCN(C(C)C(=O)N3CCCC3)CC2)cc1 (stereo not given) | 10
CC1(C)c2cc(Cl)ccc2-n2c1cc(O)c(-c1ccccc1)c2=O | 22

Next part:
SMILES | Calb biofilm kill
Cc1ccc(CCc2nnc(SCC(=O)Nc3cc(Cl)ccc3Cl)n2-c2ccccc2)o1 | -1
COc1cc(NC(=O)CN(C)S(=O)(=O)c2ccc3nc(C)sc3c2)cc(OC)c1 | 9
NC(=O)c1ccccc1NC(=O)Nc1ccccc1Cl | 9
Cc1[nH]c2c(C)cccc2c1CCNS(=O)(=O)c1cccc([N+](=O)[O-])c1 | 20
FC(F)(F)c1cccc(-c2nc3nc(Cl)c(Cl)nc3[nH]2)c1 | 9
Cc1ccc(NC(=O)OCCN2CCN(Cc3ccccc3)CCC2=O)cc1C | 20
COc1ccc(C(=O)CSc2nnc(CNC(=O)c3ccco3)n2C)cc1 | 27
Cc1nn(C)cc1CN(C)C(=O)CCc1nnc(CCC2CCCCC2)o1 | 13
Cc1ccc(NC(=O)N2CCCC(c3nc(-c4ccc(F)cc4)no3)C2)cc1 (stereo not given) | 14
NC(=O)CCn1c2ccccc2c2ccccc21 | 1
CCCNC(=S)NCCN1CCCCC1 | 17
COc1ccc(NC(=O)c2ccc(NCCCN3CCOCC3)c([N+](=O)[O-])c2)cc1 | 6
COc1ccccc1-c1nnc(NC(=O)c2cccc(N3C(=O)CCC3=O)c2)o1 | 20
CN1CCc2c(sc3c2C(=O)NC(c2ccc(-c4cccc(Cl)c4)o2)N3)C1 (stereo not given) | 5
CC(C)=CCN1CCN(Cc2cnc(-c3ccccc3)s2)CC1CCO (stereo not given) | 5
CCOC(=O)C1CCN(C2CCN(Cc3nc(-c4ccccc4)no3)CC2)CC1 | 18
CCOc1ccc(N2CC(C(=O)NCc3ccc(C)n3C)CC2=O)cc1 (stereo not given) | 4
Cc1ccc(C(C(=O)Nc2ccc(C(C)C)cc2)N(C)C(=O)c2ccc(=O)[nH]c2)cc1 (stereo not given) | -3
O=C(CCc1nnc(Cc2ccc3c(c2)OCO3)o1)NCc1nc2ccccc2s1 | 0
Cc1ccc2cc(/C=C/C(=O)c3ccco3)c(Cl)nc2c1 | 6
COc1ccc(N2C(=O)CC3(CCCC3)CC2=O)cc1 | 9
COc1ccc(CN2CCn3nc(C(=O)NC(C)C)cc3C2=O)cc1 | 16
Cc1nc(NCc2ccccc2)c2cc[nH]c2n1 | 14
Cc1onc(-c2ccccc2)c1CNC(=O)CN1C(=O)c2ccccc2C1=O | 27
CC(C)(O)C(=O)NN(Cc1ccccc1)c1ccccc1 | 13
SMILES | Calb biofilm kill
O=C(NN1CCOCC1)c1ccc(Cl)s1 | 13
COc1ccc(C(c2nnnn2Cc2ccccc2)N2CCN(c3ccccc3)CC2)cc1 (stereo not given) | 11
Cc1ccc(NC(=O)c2cc(-n3cnnc3)ccc2Cl)cc1 | 17
O=C(Oc1coc(CSc2nnc(NC(=O)c3cccs3)s2)cc1=O)c1ccccc1 | 12
S=C(NCCC1=CCCCC1)Nc1ccc(Cl)cc1 | 10
O=C(O)c1cccc(-n2cccc2/C=C\[N+](=O)[O-])c1 | 5
COc1ccc(-n2ncc3c(=O)n(Cc4c(F)cccc4Cl)cnc32)cc1 | 10
Nn1c(SCc2cn3cc(Cl)ccc3n2)nnc1-c1ccncc1 | 4
O=C(COc1ccc(S(=O)(=O)N2CCCCC2)cc1)NCC1CCCO1 (stereo not given) | 10
COc1ccc(F)cc1C(=O)C1CCCN(C(=O)Cc2c(C)noc2C)C1 (stereo not given) | 5
O=C(Nc1cccc(F)c1)c1coc(=O)c(Br)c1 | 8
COc1cccc(/C=C/C(=C2/C(=O)N(c3ccccc3)N=C2C)c2ccc(Br)cc2)c1OC | 14
Cc1ccc(S(=O)(=O)Nc2cc(=O)[nH]c(SCc3ccccc3Cl)n2)cc1 | 17
CC1CCCN(C(=S)SCC(=O)c2cc(Br)cc(Br)c2O)C1 (stereo not given) | 21
Cc1ccc(C)c(NC(=O)CN(C)C(=O)c2cccc(S(=O)(=O)N(C)C)c2)c1 | 8
O=C(O)/C=C/c1ccc(S(=O)(=O)N2CCN(CCN3C(=O)C4C5C=CC(C5)C4C3=O)CC2)cc1 (stereo not given) | 9
Cc1cccc(C)c1Nc1nnc(SCC(=O)Nc2sccc2C#N)s1 | 18
Cc1nn(C)c2ncc(C(N)=O)c(Oc3cccnc3)c12 | 14
CC(O/N=C/c1ccccc1OC(F)F)C(=O)Nc1cccc(S(=O)(=O)N2CCOCC2)c1 (stereo not given) | 14
N#CNC(=Nc1cccc(F)c1)SCc1cccc(F)c1 | 13
Cc1cc(C)n(CC(=O)c2cccc([N+](=O)[O-])c2)n1 | 10
O=C(CC1CC2CCC1C2)Nc1nc(-c2ccccn2)cs1 (stereo not given) | 10
O=C1[C@@H]2C(c3cccnc3)=NO[C@@H]2C(=O)N1c1ccc(Cl)cc1Cl | 2
COC(=O)C(CCCCNC(=O)c1ccc([N+](=O)[O-])cc1)NC(=O)c1ccc([N+](=O)[O-])cc1 (stereo not given) | 11
Cc1cccc(NC(=S)N(CCCN2CCOCC2)Cc2ccco2)c1 | 2
SMILES | Calb biofilm kill
C#CCOCCOCCOCCNc1nc(N2CCN(C(=O)[C@H]([C@@H](C)CC)n3cc(CCCN=C(N)N)nn3)CC2)nc(N2CCN(C(=O)[C@H](Cc3ccc(O)cc3)n3cc(CCO)nn3)CC2)n1 | 3
CN1/C(=C\C(=O)COC(=O)CNC(=O)c2ccccc2F)C(C)(C)c2ccccc21 | 0
Cc1ccc(NC(=O)CSc2ncn(-c3ccccc3)n2)cc1C | 21
CSc1nc2ccc(Cl)cc2[nH]1 | 17
COc1cc(/C=C/C(=O)O)ccc1OCc1ccccc1C#N | 3
Cc1ccc(CN2C(=O)c3ccccc3NC2c2ccccn2)cc1 (stereo not given) | 15
CN(C)C(=O)C1C2NC(=S)N(c3cccc(Cl)c3)C1(C)Oc1ccc(Cl)cc12 (stereo not given) | 11
CS(=O)(=O)N(CC(=O)NCc1ccccc1)C1CCCCC1 | 13
O=C(Nc1ccccc1)C1=C(c2ccccc2)S(=O)(=O)CCS1(=O)=O | 0
N#CCCN(Cc1ccccc1)C(=O)c1cccs1 | 16
O=C(/C=C\c1ccccc1)Oc1cccc2cccnc12 | 14
CCOC(=O)C1CCCN(C(=O)COc2ccc(S(=O)(=O)N(CC)c3ccccc3)cc2)C1 (stereo not given) | -1
COc1ccc(C(=O)N2CCN(c3cnn(-c4ccccc4)c(=O)c3Cl)CC2)cc1 | 14
COc1cc(OC)cc(C(=O)N2CCN(Cc3ccccc3[N+](=O)[O-])CC2)c1 | -11
CCOc1ccccc1CN1CCN(C2CCN(c3ccccc3F)CC2)CC1CCO (stereo not given) | 23
COc1ccc(-c2nc(N)n(C(=O)c3ccco3)n2)cc1 | 14
Cc1cc(C)c(S(=O)(=O)N2CCCOC2CNC(=O)C(=O)NCCc2c[nH]c3ccccc23)c(C)c1 (stereo not given) | 8
c1ccc2cc(OCCOCCOc3ccc4ccccc4c3)ccc2c1 | 19
N#Cc1ccc(N2Cc3ccccc3C2=NC(=O)c2cccs2)cc1 | 18
CCC/C=N/Nc1nc2ccccc2s1 | 17
COCCCC1CCN(Cc2nc(Cc3ccccc3Cl)no2)CC1 | 14
CC1CC(C)CN(CCCNC(=O)COc2cc(=O)n(C)c3ccccc23)C1 (stereo not given) | 11
CCOC(=O)c1c(C)[nH]c(C(=O)NCc2ccco2)c1C | 17
CCCCC(=O)NNC(=S)NC(=O)c1ccc([N+](=O)[O-])cc1 | 3
CCC(C)NC(=O)CO/N=C/c1ccccc1OC(F)F (stereo not given) | 11
O=C(Nc1ccccc1)Nc1ccc2ncoc2c1 | 13

Look-ups from the entries so far:
Result of Cc1ccccc1NC(=S)NNC(=O)c1cccnc1 in Calb biofilm kill: 9
Result of COc1ccc(OC)c2sc(N3CCc4ccccc4C3)nc12 in Calb biofilm kill: 15

From PubChem
